# Assay outcomes (PubChem)
# BmaI1: BmaI1 acyl-homoserine lactone synthase inhibition – biochemical, fluorescence intensity, with counterscreen (AID 720554); inhibition, %; 0.4% of 12,000 active; BmaI1 enzyme assay, fluorescence intensity; active compounds read high; test concentration not given here; a few actives read low; strong numbers were not always called active;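 active = both replicates within 2 robust z-scores of the inhibited control and a quiet counterscreen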;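 also: 0% = uninhibited enzyme and 100% = inhibited control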
# BmaI1 counterscreen: recorded beside BmaI1, whose call it bears; inhibition, %; measured here: counterscreen; design of the counterscreen not given here;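 first of two replicates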
# Active calls of the source: *; & = joins results of further samples. This is a subset; count on the stated rates, not on these rows.
mol	BmaI1	BmaI1 counterscreen
CCOC(=O)c1cnc(SCC(=O)OCN2C(=O)c3ccccc3C2=O)nc1N	21.0	5.5
CN(C(=O)COc1nnc(-c2cccs2)c(-c2cccs2)n1)c1ccccc1	25.5	0.0
COc1ccc(NC(=O)CN(C)C2CCCc3ccccc32)c(OC)c1 (configuration not stated)	9.5	3.0
C=CCn1c(C)cc(C(=O)COC(=O)COc2ccccc2C#N)c1C	15.5	6.5
NC(=O)c1ccccc1OCCOc1ccccc1	11.5	8.5
O=C(Cc1cn2ccsc2n1)N/N=C1/CCSc2ccc(F)cc21	15.0	4.0
CON(C)S(=O)(=O)c1ccc(C(=O)O)cc1	5.5	0.5
NC(=O)COC(=O)c1ccc(Cl)cc1	2.0	4.0
Cc1ccc(-n2nc(C)c(C(=O)N3CCN(c4ncccn4)CC3)n2)c(C)c1	3.0	2.0
c1ccc(CNC2=NCCCCC2)nc1	-8.5	-13.0
O=C(CNc1ccc(Cl)cc1)N1CCN(c2ccccc2)CC1	21.5	7.5
O=C(CSc1nnc(-c2ccccc2F)n1Cc1ccccc1)N1CCNC1=O	11.5	1.5
CCn1cc(C(=O)NC2CCCc3ccccc32)c(=O)c2ccc(C)nc21 (configuration not stated)	14.5	10.0
CCC(C)c1ccccc1NC(=O)c1ccc(Cl)nc1 (configuration not stated)	-5.5	-8.0
C=CCN=C1SC(CC(=O)Nc2ccc(OC)cc2OC)C(=O)N1/N=C/c1ccccn1 (configuration not stated)	18.5	2.0
COc1ccc(CN(C)C(=O)CSc2nccn2C)cc1OC	7.0	13.0
Cc1nc2sc3c(c2c(=O)n1-n1cccc1)CCCC3	-8.5	-8.0
CC1CCC(NC(=O)COc2ccc3c(c2)OCO3)CC1 (configuration not stated)	11.5	-3.5
COc1cc2c(cc1NC(=O)C(C)Sc1nnc(-c3cccs3)n1CC1CCCO1)oc1ccccc12 (configuration not stated)	13.5	5.5
N#Cc1ccc(C(=O)Nc2cc(C(F)(F)F)ccc2-n2cncn2)cc1	16.0	20.0
CCOC(=O)/C=C1\SCC(=O)N1C	3.5	9.5
O=C(Nc1ccc(SC(F)F)cc1)c1ccc(CO)cc1	-0.5	14.0
O=C1NCCN=C1CC(=O)c1ccccc1	5.5	17.0
COc1ccccc1-c1nnc(SCC2CNC(=O)O2)n1-c1ccccc1 (configuration not stated)	19.0	5.5
Cc1cc(C(=O)CN2C(=O)c3ccccc3S2(=O)=O)c(C)n1C	18.0	3.5
O=C(Cc1ccc2c(c1)CCCC2)NC1=NCCS1	53.5	12.0
COc1ccc(-c2cc(-c3nnc(COC(=O)CC4CCCC4)o3)c3ccccc3n2)cc1OC	18.5	11.0
Cc1nnc(SCC(=O)N(CC(C)C)CC(C)C)[nH]c1=O	9.0	-1.0
CC(Nc1ccc2c(c1)OCCO2)C(=O)N1CCCC1 (configuration not stated)	21.5	-10.0
Cc1cc(O)c(CN2CC=C(c3ccccc3)CC2)cc1C(C)C	-85.5*	-16.0*
Cc1ccc(N=Cc2c(N3CCCC3)nc3c(C)cccn3c2=O)cc1C	53.5	11.0
Cc1ccc(NC(=O)Nc2ccc(N(C)C)cc2)cc1	98.5*	3.5*
CC(C)CCSc1nc2ccccc2n1Cc1cc(=O)n2ccsc2n1	19.5	13.5
O=C(NNC1=NCCC1)c1cccc(S(=O)(=O)Nc2ccc(Cl)cc2)c1	23.5	1.0
CSc1ccc(C(=O)O)cc1	9.0	9.5
CCn1nc(C(=O)NCCc2ccc(OC)cc2)c2ccccc2c1=O	14.5	12.0
COc1ccc(-c2nnc(SCc3ccc(C#N)cc3)n2C(C)C)cc1	17.0	-5.0
CC(C)C(=O)NCCN1C(=O)S/C(=C\c2cccs2)C1=O	9.0	6.5
CN(Cc1c(F)cccc1Cl)c1ncnc2ccccc12	-8.5	-8.5
COc1ccc(CC(=O)NC2=NCCS2)cc1	14.0	22.0
CC(=O)Nc1ccc(C(=O)COc2ncnc3c2cnn3-c2ccccc2)cc1	-10.5	-2.0
Cc1ccc2[nH]c(O)c(N=NC(=O)c3nc4ccccc4c(=O)[nH]3)c2c1	11.0	2.0
CCOc1ncccc1C(=O)OCc1cn2cc(Cl)ccc2n1	22.5	20.0
CC1CN(C(=O)c2ccc(Oc3ccccc3)cc2)CC(C)O1 (configuration not stated)	19.0	14.5
O=C(N/N=C/c1ccccc1)NC1CCCCC1	4.5	-7.0
CN(CC(=O)Nc1ccc(N2CCOCC2)cc1)C(=O)c1ccc(OC(F)F)cc1	16.0	-5.5
CC(O)(CS(=O)(=O)c1ccc(F)cc1)C(=O)Nc1ccc(C#N)c(C(F)(F)F)c1 (configuration not stated)	-11.5	-6.0
Cc1ccc(C(=O)Nc2ccnn2C(C)C)cc1	12.5	4.0
CCCCC1C(=O)NN(C2CCSC(C)(C)C2)C1=O (configuration not stated)	4.5	4.5
NS(=O)(=O)c1ccc2nc(NC(=O)Cn3[nH]c(=O)c4ccccc4c3=O)sc2c1	18.5	8.0
CN1/C(=C\C(=O)Cn2nnc3ccccc3c2=O)C(C)(C)c2ccccc21	10.5	11.5
CCC(=O)OCC(=O)Nc1ccc2c(c1)OCO2	20.0	10.0
FC(F)Sc1nnc2sc3ccccc3n12	8.0	4.0
CC(C)CC(N(C)C)C1(c2ccc(Cl)cc2)CCC1 (configuration not stated)	7.5&7.5	15.0&14.5
CCOC(=O)C1=C(CSc2nnc(-c3ccccc3OC)n2C2CCCCC2)NC(=O)NC1C (configuration not stated)	26.0	-10.0
CN=C(Cc1ccccc1)C1=C(O)CC(C)(C)CC1=O	4.0	2.5
CN(CC(=O)Nc1ccc(F)c(F)c1F)C(=O)c1ccc(N2CCCC2=O)cc1	13.5	11.0
Cc1csc2c(C#N)c(=O)c3c(n12)CCC3	12.5	8.5
Cc1nc(NC(=O)COC(=O)c2cccn2C)c(Cl)cc1Cl	15.5	11.0
O=C(C1CCN(c2ncc(C(F)(F)F)cc2Cl)CC1)N1CCCc2ccccc21	18.5	8.0

# Entries of single compounds, quoted from the list:
# O=C(NNC1=NCCC1)c1cccc(S(=O)(=O)Nc2ccc(Cl)cc2)c1 across the screens: BmaI1: 23.5; BmaI1 counterscreen: 1.0
# O=C(C1CCN(c2ncc(C(F)(F)F)cc2Cl)CC1)N1CCCc2ccccc21 across the screens: BmaI1: 18.5; BmaI1 counterscreen: 8.0

# (listing goes on)
mol	BmaI1	BmaI1 counterscreen
O=C(c1ccc(-c2nc3ccccc3s2)o1)N1CCCCCC1	13.0	6.0
CCOC(=O)Nc1ccc2c(COC(=O)c3nccnc3N)cc(=O)oc2c1	-6.0	-11.0
CC1CC(C)CN(C(=O)CSC2=NCCS2)C1 (configuration not stated)	7.0	-5.5
CC1CCCCN1C(=O)Cn1c(=O)cnc2ccccc21 (configuration not stated)	-9.5	-6.5
CN(C)C(CNC(=O)c1ccc2c(c1)OCO2)c1ccco1 (configuration not stated)	42.5	5.0
N#C/C(=C(/O)CSc1nc2ccccc2o1)c1nc2ccccc2[nH]1	3.5	5.0
O=C1c2ccccc2N2C(=O)CCC2(C(=O)Nc2ccc(N3CCCCC3)cc2)N1Cc1ccccc1 (configuration not stated)	72.5	-10.0
Cc1ccc(S(=O)(=O)N(C)C)cc1C(=O)OCC(=O)c1cc2c3c(c1)CC(=O)N3CCC2	13.5	14.0
O=C(COc1ccc(F)cc1Cl)NCC1CN(Cc2ccccc2)CCO1 (configuration not stated)	9.5	7.5
CC(C)C(=O)OCc1cc(=O)n2cc(Br)ccc2n1	8.0	-4.5
Cc1ccc2nc(COc3ccccc3C#N)cc(=O)n2c1	20.0	14.5
Nc1nc(-c2ccc3c(c2)CC(=O)N3)cs1	60.5	64.0
Cc1occc1-c1nnc(SCC(=O)N(C)C2CCCc3ccccc32)n1C (configuration not stated)	5.0	-0.5
CCN1CCCC1CNC(=O)c1cc(S(=O)(=O)CC)c(N)cc1OC (configuration not stated)	-0.5	0.5
O=C(O)NC(=O)c1ccccc1	72.5	43.0
COc1ccc(-c2noc(CCCCCNC3CCSC3)n2)cc1 (configuration not stated)	21.5	7.0
CCOc1ccccc1OCC(=O)N(C)Cc1ccc2c(c1)OCCO2	5.5	0.5
O=c1[nH]c2nc3ccccc3n2c2ncccc12	-24.5	1.0
O=C(O)c1ccc(=O)n(CCOc2ccccc2)n1	12.5	10.5
Cc1cc(Oc2ccc3oc4ccccc4c3c2)n2ncnc2n1	17.5	0.0
Cc1[nH]c2ccccc2c1C(=O)CSc1ncccn1	10.0	-3.0
CN(C)CCNc1nsc2ccccc12	41.0	4.0
CCn1c(=O)c(=O)[nH]c2cc(C(=O)Nc3ccccc3N3CCOCC3)ccc21	16.5	19.5
Cc1nn(-c2ccccc2)c(Oc2ccc(F)cc2)c1/C=N/NC(N)=O	18.5	5.0
O=C(NCCc1ccc(C(F)(F)F)cc1)C1CC(=O)N(c2ccc3c(c2)OCCO3)C1 (configuration not stated)	12.5	5.5
CCOc1ccccc1-n1c(SCC(=O)NCc2ccco2)nc2ccccc2c1=O	9.0	-1.0
CC(=O)Nc1ccc(-c2nc(-c3ccco3)c(-c3ccco3)[nH]2)cc1	29.5	39.5
Cn1c(N)c(C(=O)COC(=O)C2CCN(S(=O)(=O)c3cccs3)CC2)c(=O)n(C)c1=O	13.5	3.0
CS(=O)(=O)c1ccccc1C(=O)Nc1ccc(C#N)cc1	4.0	6.0
O=C(NCc1ccc(Cl)cc1)c1cccnc1SC(F)F	9.0	6.5
FC(F)(F)c1nc(Sc2nnc(C3CC3)o2)c2ccccc2n1	-4.0	-12.0
NC(=O)C1CCN(Cc2nc3cc(Cl)ccc3c(=O)[nH]2)CC1	7.0	5.5
CS(=O)(=O)Cc1cccc(C(=O)Nc2sccc2C#N)c1	33.0	19.0
O=c1cc(CSc2nnc(-c3ccc4c(c3)OCO4)o2)nc2scc(-c3ccccc3)n12	9.0	-1.0
Cc1ccc(-n2ccnc2SCC(=O)c2ccc[nH]2)c(C)c1	6.0	5.0
CCCNC(C)C(=O)Nc1ccccc1C (configuration not stated)	2.5	6.5
O=C(CSc1ncnc2sccc12)c1ccc(S(=O)(=O)N2CCCC2)cc1	6.0	4.5
Cc1oc(-n2c(C)cc(/C=C(\C#N)c3ccc4c(c3)OCO4)c2C)c(C#N)c1C	11.5	2.0
CCN(CC)c1ccc(-c2n[nH]c(=S)n2-c2ccccc2)cc1	61.5	25.0
Cc1cc(C)cc(NC(=O)COC(=O)C2CC3C=CC2C3)c1 (configuration not stated)	-9.5	4.0
CCCCn1c(N)c(N(CCOC)C(=O)CN2CCCc3cc(C)ccc32)c(=O)[nH]c1=O	23.5	-32.0
COc1ccc(CN(C)C(=O)[C@H](Cc2ccccc2)NC(=O)c2ccco2)c(OC)c1	-1.5	7.5
Nc1ccc(S(=O)(=O)NCC(F)(F)F)cc1	7.0	5.5
COc1ccc2nc(C)cc(N3CCC(C(N)=O)CC3)c2c1	17.0	13.0
CCOC(=O)c1sc(NC(=O)c2c(C)nn(Cc3ccccc3)c2C)cc1C	26.5	15.5
CCCN(C(=O)/C=C/c1ccc(S(=O)(=O)N(CC)CC)cc1)C1CCS(=O)(=O)C1 (configuration not stated)	14.0	11.5
O=c1[nH]c(CSc2nnc3n2CCCCC3)nc2scc(-c3ccccc3Cl)c12	-11.0	-9.5
CN(C(=O)COn1nnc2ccc(S(=O)(=O)N3CCOCC3)cc21)c1ccccc1	8.0	4.0
C=CCn1c(=O)c2ccccc2n2c(SCC(=O)c3ccc(Cl)cc3)nnc12	2.5	-7.5
O=C(CN1CCCCCC1)Nc1ccc2c(c1)OC(F)(F)O2	7.5	10.5
CC(C)C(=O)Nc1cc(S(C)(=O)=O)ccc1Cl	1.5	4.5
C/C(=C\C(=O)OCCCCCCCCC(=O)O)C[C@@H]1OC[C@H](C[C@@H]2O[C@H]2[C@@H](C)[C@H](C)O)[C@@H](O)[C@H]1O	2.5	14.0
O=C(NCC(=O)N1CCCc2ccccc21)C1CCCCC1	8.0	7.0
CN1/C(=C\C=N\NC(=O)c2cccnc2)C(C)(C)c2ccccc21	43.0	7.0
COc1cc(C(=O)N2CCc3ccccc3C2)cc(NC(=O)c2ccco2)c1OC	0.5	-4.0
O=C(COC(=O)C1CCCCN1S(=O)(=O)c1ccccc1)Nc1ccccc1C(=O)NC1CC1 (configuration not stated)	8.5	0.5
C=CCNC(=S)N/N=C1\CC2CC=CC12 (configuration not stated)	-14.0	-6.0
Cc1c(C(=O)N2CCN(Cc3nc4ccccc4s3)CC2)oc2ccccc12	3.5	2.0
CC(=O)Nc1ccc(C(=O)Nc2ccc(S(C)(=O)=O)cc2)cc1	-4.0	1.5
COc1ccc(-c2nnc(SCC(=O)N(C)C)n2C2CCCCC2C)cc1 (configuration not stated)	14.0	4.5
Cc1ccc(NC(=O)C(CC(C)C)NC(N)=O)cc1Cl (configuration not stated)	11.0	16.5
Cc1c(OCC(F)(F)F)ccnc1CS(=O)c1nc2ccccc2[nH]1 (configuration not stated)	70.0	27.5

# 7 compounds picked at random from the list so far:
mol	BmaI1	BmaI1 counterscreen
COc1cc(C(=O)N2CCc3ccccc3C2)cc(NC(=O)c2ccco2)c1OC	0.5	-4.0
CC(C)C(=O)Nc1cc(S(C)(=O)=O)ccc1Cl	1.5	4.5
Nc1ccc(S(=O)(=O)NCC(F)(F)F)cc1	7.0	5.5
O=C(CN1CCCCCC1)Nc1ccc2c(c1)OC(F)(F)O2	7.5	10.5
COc1ccc(CN(C)C(=O)[C@H](Cc2ccccc2)NC(=O)c2ccco2)c(OC)c1	-1.5	7.5
O=C(COC(=O)C1CCCCN1S(=O)(=O)c1ccccc1)Nc1ccccc1C(=O)NC1CC1 (configuration not stated)	8.5	0.5
Cc1ccc(-n2ccnc2SCC(=O)c2ccc[nH]2)c(C)c1	6.0	5.0
